HIV TAR-Tat: HIV-1 TAR-Tat binding disruption; HIV-1 TAR RNA, Tat peptide displacement FRET; active compounds read high; z-score (test concentration not listed); 0.6% of 100,000 active;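 also: score is relative to mean and SD of negative controls; some compounds called inactive have numbers as strong as hits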
CDC25B CDK2 inh: human CDC25B-CDK2/CyclinA binding inhibition; P30305+P24941; HTRF CDC25B-CDK2/CyclinA binding, anti-His/anti-Flag; active compounds read high; z-score (no concentration beside the values); 0.72% of 94,000 active; AID 1259370;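 also: score is relative to mean and SD of negative controls; strong numbers were not always called active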
* = called active by the depositor; nt = not tested or not shown.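 The calls were made as follows: active = z-score from 3 up in half or more of its runs; inactive = the rest.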

The first 3 records, ahead of the listing:
structure	HIV TAR-Tat	CDC25B CDK2 inh
CCNC(=O)c1cc2n(n1)CC(C)(C(=O)NC1CCCC1)N(CC)C2=O (configuration not stated)	1.51	nt
CCOC(=O)c1c(C)oc2ncnc(N3CCOCC3)c12	0.31	nt
O=C(C1Cc2ccccc2N1C(=O)c1ccccc1)N1CCN(c2ncccn2)CC1 (configuration not stated)	2.33	nt

Main list, repeating the preview:
structure	HIV TAR-Tat	CDC25B CDK2 inh
CCNC(=O)c1cc2n(n1)CC(C)(C(=O)NC1CCCC1)N(CC)C2=O (configuration not stated)	1.51	nt
CCOC(=O)c1c(C)oc2ncnc(N3CCOCC3)c12	0.31	nt
O=C(C1Cc2ccccc2N1C(=O)c1ccccc1)N1CCN(c2ncccn2)CC1 (configuration not stated)	2.33	nt
O=C(NCCN1CCCC1)c1cnc2sccn2c1=O	1.22	nt
CC(CCc1ccco1)NC(=O)CCc1nnc2ccc(N3CCN(C)CC3)nn12 (configuration not stated)	0.57	nt
COc1ccc(/C=C/c2nc(C#N)c(N3CCNCC3)o2)cc1OC	2.03	2.02
COc1ccc(Nc2cnc3ccccc3n2)cc1	0.99	nt
O=S(=O)(CCN1CCN(Cc2ccccc2)CC1)c1ccc(Cl)cc1	nt	-1.25

Compound profiles, as listed above:
O=C(NCCN1CCCC1)c1cnc2sccn2c1=O in the list: HIV TAR-Tat = 1.22; CDC25B CDK2 inh = nt
O=S(=O)(CCN1CCN(Cc2ccccc2)CC1)c1ccc(Cl)cc1 in the list: HIV TAR-Tat = nt; CDC25B CDK2 inh = -1.25

(continued)
structure	HIV TAR-Tat	CDC25B CDK2 inh
CCCS(=O)(=O)N1CCN(c2nc3ccccc3n3cccc23)CC1	0.55	-1.34
COc1ccc(-n2cc3c(c2-c2ccccc2)c(=O)n(-c2ccccc2)n3C)c(OC)c1	0.36	-1.53
C=CCN1C(=O)C2(c3ccccc31)c1c(oc3ccc(F)cc3c1=O)C(=O)N2CCCOC (configuration not stated)	1.4	0.27
Cc1ccc(C(O)(C(C)C)C(CN2CCOCC2)c2ccc(Cl)cc2)cc1 (configuration not stated)	0.78	0.62
CCC(O)c1nc2ccccc2n1CCOc1cc(C)ccc1C (configuration not stated)	-0.22	1.16
CCC(Sc1nncn2c1cc1oc(C)cc12)C(=O)N1CCOCC1 (configuration not stated)	2.3	nt
CCOC(=O)N1CCN(c2c(N3CCc4ccccc43)c(=O)c2=O)CC1	1.28	nt
CCCCCCCc1nc2c(=O)n(C)c3ccccc3c2o1	nt	-0.94

structure	HIV TAR-Tat	CDC25B CDK2 inh
O=C(c1ccc(CS(=O)c2ccc(Br)cc2)o1)N1CCC(N2CCCCC2)CC1 (configuration not stated)	1.52	nt
COC(=O)CC1Oc2ccc(Cl)cc2-n2cc(-c3ccc(F)cc3)nc21 (configuration not stated)	-0.71	-1.1
Cc1cc(OC(C)C(=O)N(Cc2sccc2C)C2CCS(=O)(=O)C2)ccc1Cl (configuration not stated)	-0.35	1.43
O=c1c(-c2ccc3c(c2)CCCC3)c(N2CCN(c3ccccc3F)CC2)c1=O	0.71	nt
CS(=O)(=O)c1ccc(-c2ccc(NC(=O)C3CCCC3)cc2)nn1	-0.18	nt
CN(C)CCCN(C(=O)c1ccco1)c1nc2ccc(F)cc2s1	0.59	nt
CC1(C(=O)NC2CCCCC2)Cn2c(c(-n3cccc3)c3ccccc32)C(=O)N1Cc1ccco1 (configuration not stated)	1.34	nt
O=C(NCc1cccnc1)c1cc2ccc3cccnc3c2[nH]1	1.41	nt

structure	HIV TAR-Tat	CDC25B CDK2 inh
COc1ccc(NC(=O)CSc2ncnc3c2sc2nc4c(cc23)COC(C)(C)C4)c(OC)c1	0.19	nt
COc1ccc(C2=C(C)C(Nc3cc(F)ccc3F)=NS2(=O)=O)cc1	-0.32	-3.28
O=C1c2[nH]nc(-c3ccccc3O)c2C(c2cccc(O)c2)N1CCc1ccccc1 (configuration not stated)	0.23	-0.65
Cc1ccccc1Cn1nnc2cc(C(=O)O)ccc21	1.39	nt
CC(C)(C)c1cc(C(=O)NCc2ccc(C#N)cc2)n(Cc2ccccc2)n1	nt	-0.69
COc1ccc2c(c1)n1nnnc1c1nnnn21	-4.94	0.75
CCc1ccccc1Nc1nc(-c2ccccc2)no1	0.53	nt
CCc1ccc(-c2cc(C)no2)cc1S(=O)(=O)NCC1CCN(CCc2cccs2)CC1	-0.55	nt

structure	HIV TAR-Tat	CDC25B CDK2 inh
Cc1cc(-c2ccc(C(C)C)c(S(=O)(=O)N3CCN(c4ccc(F)cc4)CC3)c2)on1	0.48	nt
CSC1=N/C(=C\c2cccc(Br)c2)C(=O)S1	0.06	2.33
CC12C=CC(=O)C1(C)C(=O)C=C2 (configuration not stated)	nt	-0.71
COc1ccc2[nH]c3c(c2c1)CCNC3C1CC=C(C)CC1 (configuration not stated)	nt	-1.21
CC(C)(C)SCC(=O)c1ccc2c(c1)CCC(=O)N2	nt	-0.69
O=c1[nH]nc(-c2ccccc2)c2c1Nc1nnnn1C2c1ccc(Br)cc1 (configuration not stated)	0.81	1.89
O=C(CSc1nccn1C1CCCC1)Nc1ccc(F)cc1	0.55	nt
O=C(Nc1ccc(O)cc1)c1c(O)c2ccccc2[nH]c1=O	1.1	-1.6

structure	HIV TAR-Tat	CDC25B CDK2 inh
CCOC(=O)c1c(N)c2cc([N+](=O)[O-])ccc2n1C	nt	-1.5
Cc1ccc2nc(CSc3nnc(NC(=O)c4ccccc4Br)s3)cc(=O)n2c1	-0.25	nt
Cc1nn(Cc2nnc(SCc3ccc(Cl)cc3)n2C)c(C)c1[N+](=O)[O-]	nt	-0.02
Cc1ccc(Cl)cc1N1CCN(S(=O)(=O)c2c(C)nn(C)c2C)CC1	nt	-0.29
COC(=O)CSc1nc(C)nc2c1oc1ccccc12	0.47	-0.73
COCCCN1C(=O)c2cccc3c(N4CCOCC4)ccc(c23)C1=O	-10.1	-1.61
COc1ccc(O)c(C2=NN3C(C2)c2cccc(OC)c2OC3c2ccncc2)c1 (configuration not stated)	-0.09	1.55
Cc1cc(C)c(S(=O)(=O)NCCc2csc3nc(-c4ccc(Cl)cc4)nn23)c(C)c1	1.78	nt

structure	HIV TAR-Tat	CDC25B CDK2 inh
O=S(=O)(c1ccc(F)cc1)N1CCCN(c2nc3cc(Cl)ccc3n3cccc23)CC1	0.68	1.44
CCOC(=O)c1ccc(N2CCCCC2)c(NS(=O)(=O)c2ccc(C)cc2)c1	nt	1.25
CCN(C(=O)C(=O)c1c(C)n(C)c2ccccc12)c1ccccc1	1.6	-1.49
O=C(Nc1cccc(C(F)(F)F)c1)c1cc2cc(Br)ccc2oc1=O	nt	-0.79
CCC1CN(S(=O)(=O)c2ccc3c(c2)NC(=O)CCS3)c2ccccc2S1 (configuration not stated)	0.97	nt
COc1ccc(-c2noc(-c3nnn(-c4cc(C)cc(C)c4)c3C)n2)cc1OC	0.1	nt
Cc1ccn2cc(-c3ccc(F)cc3)nc2c1	nt	0.57
Cc1ccn2c(=O)cc(COc3ccc(NC(=O)c4cccs4)cc3)nc2c1	-0.84	nt

structure	HIV TAR-Tat	CDC25B CDK2 inh
COc1ccc([N+](=O)[O-])c(OC)c1C(=O)NC(=O)Nc1nc(C)cc(C)n1	nt	-0.79
O=C(OCc1cc(=O)n2nc(C3CCCCC3)sc2n1)c1ccccc1Br	-2.23	nt
CC(=O)Nc1cc(N=Cc2cc(Cl)cc(Cl)c2O)ccc1C	nt	-1.45
O=C(O)c1nccnc1C(=O)Nc1ccc(-n2ccc(C(F)(F)F)n2)cc1	nt	-0.02
Cc1nn(-c2ccccc2)nc1CNC(=O)c1cc(F)cc2c1OCOC2	nt	-0.2
Cc1ccc(C(=O)c2cc3c(CO)cnc(C)c3oc2=O)cc1	-0.29	-0.43
CC1(C)CC(=O)c2cc(C(=O)Nc3ccc4c(c3)C(=O)NC4=O)c(=O)n(-c3ccc(Cl)cc3)c2C1	1.44	-0.19
N[C@H](C(=O)O)[C@H](O)c1ccc(O)c(O)c1	nt	-0.96

structure	HIV TAR-Tat	CDC25B CDK2 inh
CN1CCN(C(=O)CCCN2C(=O)c3ccccc3Sc3ncccc32)CC1	-1.62	nt
COc1ccc(-c2ccc(NS(=O)(=O)c3ccc(Br)cc3)cc2)nn1	2.11	nt
O=C(NCc1ccc2c(c1)OCO2)c1nc(S(=O)(=O)Cc2ccccc2)ncc1Cl	1.17	1.15
COc1cccc(NC2c3ccccc3C(=O)N2c2cccnc2)c1 (configuration not stated)	0.27	-0.3
COc1ccc(S(=O)(=O)N2CCc3cc4ccccc4nc32)cc1Cl	-2.82	-1.07
CC1CN(C(=O)CSc2cn(CC(=O)N3CCCC3)c3ccccc23)CC(C)O1 (configuration not stated)	-0.98	nt
CCOC(=O)c1c(C)c(C(=O)NCCN2CCOCC2)c(C)n1CC	nt	-1.06
COc1cccc(-c2noc(-c3cc(C(C)C)[nH]n3)n2)c1OC	-0.86	nt

structure	HIV TAR-Tat	CDC25B CDK2 inh
CCc1ccc2ncc(S(=O)(=O)c3ccccc3)c(N3CCOCC3)c2c1	-0.46	-2
Cc1ccc(-c2onc(C)c2C)cc1S(=O)(=O)Nc1ccc(F)cc1F	0.7	nt
CN1CCN(c2nn3nnnc3c3ccccc23)CC1	-0.7	nt
CSc1ccc(-c2ncnn2-c2ccc(C)c(Cl)c2)cc1	-0.45	0.31
CC1=C(C(=O)OCCOc2ccccc2)C(c2ccncc2)C2=C(CC(C)(C)CC2=O)N1 (configuration not stated)	1.92	0.39
CCN(CC)CCCC(C)NC(=O)C(=O)c1c(C)n(C)c2ccccc12 (configuration not stated)	nt	-2.29
CCC(C)NC(=O)CCC(=O)N1CCOc2ccccc21 (configuration not stated)	-1.89	-2.34
C/C(Cn1c(=O)oc2ccccc21)=N\OC(=O)Nc1ccccc1	nt	-1.18

structure	HIV TAR-Tat	CDC25B CDK2 inh
O=S(=O)(c1cc(S(=O)(=O)N2CCOCC2)c(Cl)s1)N1CCOCC1	nt	-2.17
CC(=O)OC(C(=O)O)C(OC(C)=O)C(=O)Nc1ccc(Cl)cc1 (configuration not stated)	nt	-0.62
CSC(=S)Nc1ccc(NC(C)=O)cc1	nt	-1.06
CC(C)CN(CCNS(=O)(=O)c1ccc2c(c1)NC(=O)CCS2)CC(C)C	1.19	nt
CCCCCCCOC(=O)C1=C(C)Nc2nnnn2C1c1ccccc1F (configuration not stated)	-0.66	0.32
Cc1ccc2oc(=O)c3cnn(CC(=O)N(C)c4ccc(Br)cc4)c3c2c1	0.61	-1.68
Cn1ncc2c(Nc3ccccc3)nc(N3CCCCC3)nc21	4.51	nt
CCNc1nc(-c2ccc(Br)cc2)cs1	1	-1.11

structure	HIV TAR-Tat	CDC25B CDK2 inh
Brc1cc2c(cc1CSc1nc3ncccc3[nH]1)OCO2	1.09	-0.82
CC(C)(C)n1nc(-c2ccc(Cl)cc2)c(C#N)c1N	nt	-2.35
Cc1nn(-c2nc3ccccc3o2)c2c1C(c1cc(Br)ccc1F)CC(=O)N2 (configuration not stated)	1.47	nt
CCCNC(=O)C1CCC(Cn2c(=O)c3sccc3n(CC(=O)NC3CCCC3)c2=O)CC1 (configuration not stated)	1.19	nt
CNc1ncc(C(F)(F)F)cc1[N+](=O)[O-]	nt	-1.29
Cc1cc(C)c2c(-n3cccc3)nn(Cc3ccc(C(=O)NCc4ccc5c(c4)OCO5)cc3)c2n1	1.09	nt
CC1CSc2ccc(S(=O)(=O)Nc3ccc(F)c(F)c3)cc2NC1=O (configuration not stated)	2.47	nt
CCSc1nnc2n(-c3ccccc3)c3ccccc3n12	1.43	-0.18

structure	HIV TAR-Tat	CDC25B CDK2 inh
O=C(Nc1ccc(Cl)cc1)c1cnc(SCc2ccco2)cc1C(F)(F)F	nt	-2.34
Cn1c(=O)n(C)c2cc(NC(=O)C3CCCN(S(=O)(=O)c4cccs4)C3)ccc21 (configuration not stated)	1.13	-1.18
CCOC(=O)c1c(C)oc2ncnc(NCCc3ccsc3)c12	0.16	nt
Cc1nc2ccccc2nc1CSc1nnc(NC(=O)C2CC2)s1	0.46	-2.47
CC(=O)N/C(=C\c1ccc(Cl)cc1)C(=O)O	nt	-1.21
COc1ccc(C2c3c(oc4ccccc4c3=O)C(=O)N2c2nccs2)cc1OC (configuration not stated)	2.6	-0.78
CCN(CC)CCNc1ncnc2sc3c(c12)CCC(C)C3 (configuration not stated)	nt	-0.94
Nc1ccc(Cc2nc3ccccc3[nH]2)cc1	-0.36	-1.12

structure	HIV TAR-Tat	CDC25B CDK2 inh
C=CCn1c(SC)nnc1-c1ccc2ncccc2c1	nt	-1.03
COc1ccc(-c2cc(C)no2)cc1S(=O)(=O)NCc1ccco1	-0.82	nt
Cc1ccc2c(n1)sc1c(=O)n(-c3ccccc3F)nnc12	2.08	-0.04
CCOC(=O)N1CCc2c(sc3c2C(=O)NC(c2ccc(OC)cc2)N3)C1 (configuration not stated)	-2.76	16.1*
Cc1ncc(-c2ccc(C)c(S(=O)(=O)Nc3ccccc3)c2)o1	1.61	nt
COc1cc2c(cc1OC)C(c1cc(Br)ccc1OC)CC(=O)N2 (configuration not stated)	nt	-1.6
CN1c2ccc(Cl)cc2-c2nc(SCC(=O)Nc3cc(F)ccc3F)ncc2S1(=O)=O	-0.63	nt
O=C(c1ccc(Cl)cc1)N(Cc1ccco1)Cc1cccs1	1.29	-0.57

structure	HIV TAR-Tat	CDC25B CDK2 inh
O=C(NCCN1CCOCC1)c1cnc2sc(N3CCCC3)nn2c1=O	0.54	nt
CCn1cc2c(n1)-c1c(oc(C(=O)Nc3ccc(Br)c(C)c3)c1C)CC2	0.28	nt
Cc1nn(-c2nncc(-c3ccc(F)cc3)n2)c2c1C(c1ccc(F)cc1F)CC(=O)N2 (configuration not stated)	3.09	-0.88
Cc1ccc2nc(Cl)nc(-c3ccccc3)c2c1	nt	-3.45

Rows were taken by chance. Share with any hit: about 0.87%.
